Screening data as filed in PubChem.
T cruzi inh = inhibitors of intracellular T. cruzi growth, primary screen, luminescence, NIH3T3 host cells | T. cruzi beta-gal in NIH3T3, 90 h | inhibition, % (test concentration not listed) | 300,000 tested, 1.4% active;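 active = mean inhibition across valid replicates above about 55%, limit read from the data; inconclusive = mean below that limit but half or more replicates reach it; inactive = mean below it, under half of replicates reach it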;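 also: signal also drops with host cell toxicity which is not excluded here; 0% = plate median of DMSO wells and 100% = zero luminescence signal; higher percent means less beta-gal luminescence so fewer parasites; stock transfer was 50 nL into about 50 µL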
FGF22 binding = binders of human FGF22 protein, primary screen, FGF22 synaptogenesis inhibitor project, biophysical, thermal shift, single point; Fibroblast growth factor 22 (Homo sapiens), Q9HCT0; calls only at 9.99 µM; recombinant FGF22 thermal shift, SYPRO orange fluorescence; percent of sucrose octasulfate shift, DMSO zero; 340,000 tested, 1.5% active;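 active = melting point raised past a set limit in the mean and every replicate; inconclusive = no clear call; three in four hits are not shown here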
Target sequence (Q9HCT0 whole entry, looked up): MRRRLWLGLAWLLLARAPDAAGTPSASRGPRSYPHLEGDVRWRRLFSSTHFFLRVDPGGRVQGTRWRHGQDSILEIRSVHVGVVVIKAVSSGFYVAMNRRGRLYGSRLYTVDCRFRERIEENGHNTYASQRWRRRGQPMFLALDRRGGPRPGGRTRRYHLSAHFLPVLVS
A1 inh = caspase 3/7 activation in MEF A1-2A-BIM cells, primary screen, A1 inhibitor project, cell-based, luminescence, HTS; Caspase-Glo 3/7 luminescence, 3 h; percent of clofoctol response, vehicle zero; caspase activation, % (concentration not given with the values); 330,000 tested, 0.066% active;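 active = over half of replicate activation scores above 10%, or exactly half above 10 with the replicate mean above 10; inconclusive = replicate mean below 10 yet half the replicates above 10; inactive = over half of replicates below 10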;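 also: wells of about 30 µL received 50 nL stock; many hits fall short of the cut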
Ecoli growth = E. coli growth inhibition, primary screen, OD600; Escherichia coli growth, 23 h; hits give low values; OD600 absorbance (test concentration not listed); 330,000 tested, 0.21% active; AID 1053175, 2014;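 active = OD600 absorbance below the run mean of sample wells minus 3.6 SD, in any replicate, cut at about 0.56 in these data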;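 also: stock transfer was 300 nL into about 60 µL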
Ecoli rRNA inh = reduced GFP signal of wild-type E. coli, primary screen, bacterial rRNA inhibitor project, GFP/RFP fluorescence, OD600, single point; E. coli WT GFP vs humanized-ribosome RFP mutants, 24 h; hits give low values; DMSO median 0, no signal -100; GFP signal change (wild-type ribosome), % (concentration not given with the values); 350,000 tested, 1.6% active;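 active = significant combined selectivity score with lowered wild-type GFP, culture density cut under 30%, mutant RFP and density less affected; inactive = any of these conditions unmet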; also: one replicate is shown; some compounds called inactive have numbers as strong as hits
AF4-AF9 inh = inhibitors of AF4 peptide binding to AF9, primary screen, biochemical, AlphaScreen, biotin-AF4 peptide, FLAG-AF9, single point; Protein AF-9 (Homo sapiens), P42568; inhibition, % at 10 µM; 350,000 tested, 0.47% active; AID 651704, 2012;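 active = every replicate reaching a set inhibition limit, whatever the replicate mean, cut at about 25% in these data; inconclusive = mean inhibition reaches that limit but some replicates miss it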;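 also: 0% = plate neutral control median and 100% = total signal loss; the record names both 10 and 1 µM as test concentration; the first replicate is given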
Beta cell apopt = inhibitors of cytokine-induced beta cell apoptosis, primary screen, luminescence; INS-1E cytokine-induced death, ATP luminescence, 48 h; percent of positive-control rescue, neutral wells zero; protection from apoptosis, % (concentration not given with the values); 300,000 tested, 0.8% active; AID 435005, 2010;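 active = all replicates at 75% or more, or half of them and the mean; inconclusive = half reach 75% but not the mean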;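 also: 0% = cytokine-treated negative control wells and 100% = positive control rescue; higher means more ATP so stronger rescue from cytokine killing; wells of about 40 µL received 100 nL stock; the first replicate is given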
UCH37 inh = inhibitors of human UCH37 deubiquitinase, primary screen, biochemical, Ub-AMC cleavage, fluorescence. inhibition, % (test concentration not listed). Ubiquitin carboxyl-terminal hydrolase isozyme L5 (Homo sapiens), Q9Y5K5. purified proteasome/UCH37. 330,000 tested, 0.33% active. AID 588478, 2011;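 active = mean of two replicates above 20%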;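 also: 0% = compound-free wells with enzyme and 100% = wells lacking proteasome; stock transfer was 100 nL into about 20 µL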
Target sequence (Q9Y5K5 whole entry, looked up): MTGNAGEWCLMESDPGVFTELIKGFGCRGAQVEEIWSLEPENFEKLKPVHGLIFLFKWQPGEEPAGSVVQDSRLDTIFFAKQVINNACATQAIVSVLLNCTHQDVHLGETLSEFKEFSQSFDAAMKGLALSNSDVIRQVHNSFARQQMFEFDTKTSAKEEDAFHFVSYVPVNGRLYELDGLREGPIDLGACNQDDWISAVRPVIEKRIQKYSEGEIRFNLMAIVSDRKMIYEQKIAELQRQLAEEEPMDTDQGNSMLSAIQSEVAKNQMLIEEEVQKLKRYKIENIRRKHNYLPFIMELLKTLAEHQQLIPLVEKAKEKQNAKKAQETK
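Test system – human UCH37 enzyme supplied as purified proteasome complex · Incubation – 30 min preincubation with enzyme, 25 min cleavage at room temperature · Detection – AMC fluorescence from Ub-AMC cleavage, excitation 355 nm, emission 460 nm · Benchmarks – no-proteasome wells (full inhibition) and compound-free wells (no inhibition)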
Ecoli rRNA inh OD600 = recorded beside Ecoli rRNA inh, whose call it bears; OD600 change, %; measured here: OD600 growth;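 optical density of the mix in the first replicate; 0 = DMSO median and -100 = no signal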
Ecoli rRNA inh RFP = second read-out of Ecoli rRNA inh, no call of its own (marks repeat the call); RFP signal change, %; measured here: RFP humanized mutant strains;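 first replicate; 0 = DMSO median and -100 = no signal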
The depositor's hits bear a star; i = inactive; ? = inconclusive; . = not tested or not shown.

#	canonical_smiles	T cruzi inh	FGF22 binding	A1 inh	Ecoli growth	Ecoli rRNA inh	Ecoli rRNA inh OD600	Ecoli rRNA inh RFP	AF4-AF9 inh	Beta cell apopt	UCH37 inh
1	COC(=O)CCS(=O)(=O)c1cc(Cl)ccc1Cl	-24	.	1.6	0.73	.	.	.	.	-2	1.1
2	O=C(COc1ccc2c(c1)CCC2)NCc1cccc(Cl)c1	-12	.	0.2	0.72	.	.	.	.	2	3.8
3	COc1ccc(CNC(=O)c2c(N)n(CCCN3CCOCC3)c3nc4ccccc4nc23)cc1	24	.	-0.1	0.64	.	.	.	.	42	-266
4	CCOC(=O)c1cccc(NC(=O)N[C@@H](C)C(=O)OC)c1	-5	.	1.8	0.71	.	.	.	.	-1	6.0
5	N#C/C(=C(/O)c1ccc([N+](=O)[O-])o1)c1nc2ccccc2[nH]1	27	i	-5.2	0.47*	11	0	7.6	-1.1	-4	3.2
6	CCOCCCNCC(=O)Nc1ccc(OC(F)(F)F)cc1	24	.	0.5	0.73	.	.	.	.	-13	-0.2
7	COc1ccc2c(c1)c(C(=O)CN1CCC3(CC1)OCCO3)c(C)n2C	-6	.	0.4	0.67	.	.	.	.	-5	27*
8	Nc1ccccc1SCc1cn2ccccc2n1	-4	i	-3.6	0.62	-20	-16	-0.7	-2.3	-2	5.3
9	CCCCC(=O)NC(=S)Nc1ccc(Cl)c(C(=O)O)c1	-7	i	-0.2	0.67	2	6	-0.4	2.2	-1	2.0
10	Cc1cccc(/C=N/n2c(COc3ccccc3)n[nH]c2=S)c1	-5	i	-0.3	.	-6	-13	2.9	-0.7	6	.
11	CCN(CC)C(=O)n1c(Cc2ccccc2)nc2ccccc21	-5	i	0.1	0.61	19	14	4.1	4.0	-2	1.5
12	Clc1cccc(CSc2nnc(-c3cccnc3)n2Cc2ccco2)c1	1	i	0.6	0.61	-16	-16	10	7.8	-7	0.8
13	CCOC(=O)c1ccc(NC(=O)CSc2ccc(-c3cccnc3)nn2)cc1	16	.	-0.6	.	-23	-23	-1.5	-1.3	1	.
14	O=C(NC1=C(Nc2ccc(Cl)cc2)C(=O)c2ccccc2C1=O)c1ccccc1	5	i	0.1	0.64	.	.	.	2.8	117*	8.7
15	Cc1c(CCOC(=O)c2cccc([N+](=O)[O-])c2)sc[n+]1CC(=O)c1ccccc1	8	i	-0.2	0.65	-4	2	-4.2	-0.9	30	0.8
16	CCc1c(O)nc2ccccn2c1=O	-6	.	0.3	0.68	.	.	.	.	-4	4.6
17	C=CCc1ccc(OCC(O)COc2ccc(CC=C)cc2OC)c(OC)c1	7	.	?	0.7	.	.	.	-2.2	-6	16
18	COc1cc(/C=C(\NC(C)=O)C(=O)Nc2ccccc2C)ccc1OC(C)=O	-10	.	-1.2	0.64	3	-7	-3.8	4.3	-6	0.6
19	O=C(CN1CCCCC1)Nc1cccc(Oc2ccccc2)c1	4	.	0.0	0.68	.	.	.	.	-3	2.9
20	COCCNC(=O)c1cc(-c2ccccc2C)n(CC2CC(c3cccc([N+](=O)[O-])c3)=NO2)n1 (centres undefined)	.	i	0.1	0.71	-9	-17	-3.0	5.0	-3	-4.8
21	COc1ccccc1NS(=O)(=O)c1cc(-c2cnc(C3CC3)o2)ccc1C	-96	i	-0.5	0.69	-29	-29	-4.3	-7.4	7	4.4
22	Cc1ccc(OCCOCCn2cnc3ccccc3c2=O)cc1C	12	.	-0.4	0.68	.	.	.	.	-3	5.0
23	Cc1cc(C(=O)NC2CCCN(Cc3ccc(Cl)cc3)C2)n(C)n1 (centres undefined)	16	i	0.6	0.7	5	1	6.1	1.6	3	2.6
24	O=C(NCc1ccc(OC(F)(F)F)cc1)c1ccc2c(c1)S(=O)(=O)c1ccccc1C2=O	3	i	-1.5	0.7	-7	-3	-5.7	0.8	-11	0.7
25	O=C1/C(=C/c2ccccc2Cl)SC(=S)N1CCCC(=O)N(CCO)c1ccccc1	21	i	0.1	0.71	1	-1	-1.3	0.7	.	7.1
26	O=C(CSc1nc2ccccc2[nH]1)Nc1ccccc1F	-6	i	0.4	0.63	-26*	-8.0*	7.4*	-47	.	3.4
27	Cc1ccc(C(=O)N/C(=C\c2ccco2)C(=O)NCCc2c[nH]c3ccccc23)cc1	-10	i	-0.4	0.65	-6	-2	-9.1	10	-3	2.9
28	CCC(=O)Nc1cccc(-c2nc3ccc(C)cc3o2)c1	9	i	-5.1	0.65	7	5	-0.1	-1.0	5	-4.0
29	C=CCN(CC=C)C(=O)C1CCN(Cc2ccc(OCc3ccccc3)cc2)CC1	41	i	-1.4	0.68	-1	-11	7.2	4.8	5	4.8
30	CC1CCCN(C(=O)COC(=O)c2cccc(NS(=O)(=O)c3ccccc3)c2)C1 (centres undefined)	12	.	0.5	0.67	-8	-12	5.6	-0.4	1	4.3
31	Fc1ccccc1Nc1nc2ccccc2o1	-9	i	-13	.	8	17	-2.1	-0.7	16	.
32	Cc1cccc(NC(=O)CN2CCN(C(=O)C3CCCO3)CC2)c1C (centres undefined)	-2	i	1.4	0.72	15	4	0.8	-1.5	-5	2.7
33	CCCCc1ccc(NC(=O)N2CCNC(=O)C2CC(=O)Nc2ccsc2C(=O)OC)cc1 (centres undefined)	11	i	0.1	0.67	.	.	.	-0.1	-9	3.8
34	CC(=O)Nc1ccc(OCC[n+]2cccc(C(N)=O)c2)cc1	-15	i	0.3	0.68	26	25	0.9	-0.4	3	1.7
35	CN1CCN(c2ccc(C(=O)c3ccc(Br)cc3)cc2[N+](=O)[O-])CC1	53	i	1.3	0.69	-21	-21	3.3	19	-25	7.8
36	COc1ccc(-n2nnnc2-c2nc3ccccc3s2)cc1	0	.	-1.2	0.68	.	.	.	.	-2	-65
37	CCOc1ccc(C2C3=C(CCCC3=O)N(CC(=O)O)C3=C2C(=O)CCC3)cc1	5	i	-0.3	0.64	17	6	-0.2	0.0	.	-375
38	CCOC(=O)CC(=O)CSc1nc(C)cc(-c2cccnc2)c1C#N	7	i	-1.0	0.7	-8	-7	-2.5	2.1	-19	-20
39	CCc1[nH]c(C(=O)O)c(C)c1C(=O)OC	-7	i	-0.3	0.68	-2	0	-0.6	0.1	2	0.9
40	c1ccc(Cc2cc[n+](Cc3ccccc3)cc2)cc1	12	i	0.5	0.65	17	9	-1.1	0.0	23	2.9
41	Nc1ncnc2c1ncn2CCN1CCCCC1	9	.	1.4	0.76	.	.	.	.	-7	0.7
42	CCN=C1SC(CC(=O)NCC)C(=O)N1CC (centres undefined)	-6	.	1.7	0.75	.	.	.	.	1	-0.3
43	CNCC(C)COc1ccccc1OCc1ccccc1 (centres undefined)	9	i	-0.2	0.67	-2	-5	-4.8	6.1	1	0.3
44	Cn1c(SCC(=O)N2CCOCC2)nnc1-c1ccco1	-29	i	0.2	0.65	-53	-74	-15	1.1	-5	1.2
45	O=C(c1cccc(S(=O)(=O)Nc2ccccc2Cl)c1)N1CCC1	10	i	-0.4	0.76	5	0	1.1	-2.3	3	1.2
46	O=C(Nc1ccccc1OC(F)F)c1ccc(S(=O)(=O)N2CCCC2)cc1	.	i	.	0.7	-3	-1	1.9	-0.5	.	3.4
47	Nc1nc(Nc2cccc(F)c2)nc(N2CCOCC2)c1[N+](=O)[O-]	8	i	-0.5	0.67	-29*	-12*	-2.0*	0.9	1	5.3
48	CCCC(=O)Nc1cccn(Cc2ccccc2Br)c1=O	-11	.	-0.5	0.68	.	.	.	.	-3	-0.6
49	COc1ccc(NC(=O)CS(=O)(=O)c2cn(CC(=O)N3CCOCC3)c3ccccc23)cc1OC	-7	i	-0.6	0.67	4	8	-1.1	0.5	-5	-0.8
50	CN(CC(=O)NC1CCCC1)S(=O)(=O)c1cnc[nH]1	-10	i	-0.2	0.71	25	36	2.8	-0.9	-1	4.1

(next part)
#	canonical_smiles	T cruzi inh	FGF22 binding	A1 inh	Ecoli growth	Ecoli rRNA inh	Ecoli rRNA inh OD600	Ecoli rRNA inh RFP	AF4-AF9 inh	Beta cell apopt	UCH37 inh
51	CCC1Oc2ccccc2N(CC(=O)NCCCN2CCOCC2)C1=O (centres undefined)	-12	i	0.1	0.74	8	2	1.0	-0.7	0	1.1
52	COc1ccccc1C(=O)COC(=O)c1cccc(S(=O)(=O)N2CCCC2)c1	-6	i	0.8	0.7	-1	-26	1.0	-0.9	.	-0.6
53	Cc1cccc(C)c1OCC(=O)Nc1ncn[nH]1	-15	.	0.3	0.71	.	.	.	.	-2	-1.5
54	CC(=O)/C(N=Nc1ccc(C(=O)O)cc1)=C(\C)O	-10	i	-7.1	0.68	-10	17	7.7	3.5	2	9.3
55	Cc1cc(N2CCN(c3ccc(F)cc3)CC2)nc(-c2ccccc2)n1	-3	.	?	0.71	.	.	.	.	0	6.2
56	CN(C)/C=N/NC(=O)C1Cc2c(ccc3ccccc23)O1 (centres undefined)	-5	i	-1.1	.	2	14	-1.0	-3.4	-10	.
57	Cc1cccc(CC2S/C(=N/c3ccccn3)NC2=O)c1 (centres undefined)	-2	.	0.0	.	.	.	.	.	2	-1.9
58	Cc1ccc(C)c(NNC(N)=S)c1	-20	i	-0.9	.	16	11	-1.0	1.7	-9	.

These rows are one share of the data; count on the stated rates, not on these rows.
